Screening results deposited in PubChem BioAssay by National Center for Advancing Translational Sciences (NCATS).
2A Renilla: FMDV 2A StopGo reporter, Renilla signal. HEK cells with a luciferase reporter of 2A StopGo recoding. Potency, µM (highest dose often 57.5 µM), without a hit: at the highest dose signal change, negative = less light. 120,000 compounds, 0.32% hits. AID 1745857; active means well fitted falling curve with a large enough effect; inconclusive means small, poorly fitted or top-dose-only effect; inactive means no such curve, though single readings can be large or run the other way; further: nearly all actives have a fitted effect of over 55% in size; overnight with compound
2A firefly: lowers the firefly signal of an FMDV 2A StopGo reporter. HEK cells with a luciferase reporter of 2A StopGo recoding. Potency, µM (doses to about 57.5 µM), for inactives: at the highest dose signal change, negative = less light. 120,000 compounds, 0.23% hits; active = well fitted falling curve with a large enough effect; inconclusive = small, poorly fitted or top-dose-only effect; inactive = no such curve, though single readings can be large or run the other way; further: nearly all actives have a fitted effect of over 60% in size; overnight with compound
The depositor's hits bear a star; ? = inconclusive; & = joins results of further samples; [ ] = another dose, or the depositor's remark. On the % scale 0 is the no-effect control and ±100 the full control effect; potency means the concentration at half of the fitted maximal effect.

Each structure is followed by: 2A Renilla | 2A firefly
> COc1ccccc1NC(=O)NCCn1c(C(F)(F)F)nc2ccccc21
 : 15% | 9%
> COc1ccc(C(=O)c2cn(Cc3ccccc3F)c3cc4c(cc3c2=O)OCO4)cc1
 : -17% | -1%
> COc1ccc(C)cc1NC(=O)N1CCN(S(=O)(=O)c2ccc3c(ccn3C)c2)CC1
 : 13% | 1%
> COC(=O)/C=C(/SCc1ccccc1)c1ccccc1
 : 14% | 7%
> CCCCOc1c(Cl)cc(C(=O)N(Cc2ccc(C)o2)C2CCS(=O)(=O)C2)cc1Cl (stereo not given)
 : 42%[activator] | -10%
> Cc1ccc(SC(C)C(=O)Nc2ccc(OCc3ccccc3)cc2)cc1 (stereo not given)
 : 4% | 24%
> COc1ccc(Cn2c(SCc3ccc(C(=O)NCc4ccccc4F)cc3)nc3cccnc32)cc1
 : 21% | -3%
> Cc1ccc2c(=O)cc(C(=O)NCC(c3ccco3)N3CCCC3)oc2c1C (stereo not given)
 : 8% | 4%
> CC1CCc2cc(F)cc3c(=O)c(C(=O)O)cn1c23 (stereo not given)
 : -6% | 13%[11.5 µM]
> Cc1ccccc1C(=O)Oc1ccc2c(=O)c(-c3ccccc3)coc2c1
 : 5% | 0%
> CCN(Cc1ccccc1)C(=O)Cn1c(=O)oc2cc(S(=O)(=O)N3CCCCCC3)ccc21
 : -4% | 0%
> COc1cccc(C(CNC(=O)C2CCN(S(=O)(=O)c3ccc(C)c(C)c3)CC2)N(C)C)c1 (stereo not given)
 : -11% | 17%
> NC(=O)c1ccc(O)cc1
 : -3% | -2%
> COc1ccc(S(=O)(=O)Oc2ccc3oc(=O)c(-c4ccccc4)c(C)c3c2)cc1
 : ? | ?
> CCc1cccc(NC(=O)CN2CCCN(Cc3cccc(C)c3)S2(=O)=O)c1
 : 6% | -23%
> COc1ccc(CCNC(=O)c2cc3c(=O)n4ccccc4nc3n2C)cc1
 : 6% | -2%
> CC(C)c1nc(N2CCN(C(=O)C(=O)N3CCCC3)CC2)c(C#N)c2c1CCCC2
 : ? | ?
> CCn1nc(C(=O)OCc2ccc(C(=O)OC)cc2)c2ccccc2c1=O
 : -3% | 84%[activator]
> CC(C)Cc1ccc(C(Nc2ccc3nnnn3n2)c2cccs2)cc1 (stereo not given)
 : 32%[activator] | -3%
> CCc1ccc(-n2nc(CO)c(C(=O)NCc3cccs3)n2)cc1
 : 34%[activator] | 53%[activator]
> COc1cc(CC(=O)OCc2ccccc2F)cc(OC)c1OC
 : -11% | -7%
> Cn1c(=O)c2sccc2n2c(CCC(=O)N3CCN(c4ccccc4)CC3)nnc12
 : -16% | -6%
> CCc1c(C)sc(NC(=O)c2cccnc2)c1C#N
 : ? | 72%[activator]
> CSc1ccccc1NCC(=O)N1CCNC1=O
 : 0% | 23%
> CSc1ncc(Cl)c(C(=O)Nc2c(C(=O)c3ccc(C)c(F)c3)oc3ccccc23)n1
 : -10% | -18%
> Cc1csc(NC(=O)c2nc(C)n(-c3ccc(F)cc3)n2)n1
 : -2% | 160%[activator]
> Cc1cc(C)c(NC(=O)CNS(=O)(=O)c2cccc3cc(C)cnc23)c(C)c1
 : 277%[activator] | 12%
> Cc1ccc(S(=O)(=O)N(CC(=O)Nc2ccc(F)cc2F)Cc2ccc(F)cc2)cc1
 : 39%[activator] | ?
> CN(c1ncnc2scc(-c3ccc(Cl)cc3)c12)C1CCS(=O)(=O)C1 (stereo not given)
 : -20% | -19%
> COc1ccc(-n2c(=O)[nH]c3cc(C(=O)NCCc4ccc(Cl)cc4)ccc3c2=O)cc1OC
 : 6% | -17%
> O=C(Cc1c[nH]c2ccccc12)NCCc1ccc(F)cc1
 : 0% | 33%
> CCOc1ccc(NC(=O)Cn2cnc3c(oc4ccccc43)c2=O)cc1
 : 3% | 7%
> CC1CCCCC1NC(=O)c1ccc(-c2ccccc2)cc1 (stereo not given)
 : -6%[1.06 µM] | 76%[activator]
> Cc1cc(C)c(Nc2nc3ccccc3n3c(C)nnc23)c(C)c1
 : -9% | -11%
> CCc1ccc(-n2nc(C)c3c(C)cc(=O)n(CC(=O)Nc4ccc(F)cc4C)c32)cc1
 : -20% | -18%
> C#CCN1CCN(CCOc2ccccc2)CC1
 : 5% | 22%
> CCN1CCN(c2nc3c(c(=O)n(C)c(=O)n3C)n2Cc2ccc(Br)cc2)CC1
 : 16% | 0%
> CCCCOc1ccccc1NC(=O)CC1Sc2ccccc2NC1=O (stereo not given)
 : 15% | 6%
> O=c1oc2c3c(ccc2c2ccccc12)OCN(Cc1ccc(Cl)cc1)C3
 : 4% | 3%
> Cc1cc(=O)[nH]c(-n2nc(C)cc2NC(=O)c2cc(Br)ccc2Cl)n1
 : -2% | -2%
> CCN1CCN(CCCNC(=O)c2cc3c(=O)n(C)c4ccccc4c3s2)CC1
 : 33%[activator] | 21%
> CSc1nnc2c(n1)OC(C)N(C(C)=O)c1ccccc1-2 (stereo not given)
 : 10% | 19%
> COc1ccc2ncc(C(=O)c3ccc(C)c(C)c3)c(N3CCOCC3)c2c1
 : 2% | -4%
> CCc1ccc(NC(=O)c2ccc(F)c(S(=O)(=O)NCc3ccc(Cl)c(Cl)c3)c2)cc1
 : 24% | ?
> CCc1ccccc1NC(=O)Cn1c(=O)n(CC2CCC(C(=O)NCCc3ccccc3)CC2)c(=O)c2ccccc21 (stereo not given)
 : -4% | -1%
> CCOCCCNC(=O)C(c1ccc(OC)cc1)N(Cc1ccc2c(c1)OCO2)C(=O)c1ccccc1O (stereo not given)
 : 175%[activator] | 2%
> Cc1nc(C)c(CCC(=O)Nc2ccccc2Cl)c(=O)[nH]1
 : 0% | 0%
> O=C(OCC(=O)N1CCCC1=O)c1cc(-c2cccs2)nc2ccccc12
 : 1% | 19%
> CCN(CC)S(=O)(=O)c1ccc(C)c(NC(=S)Nc2ccc(F)c(F)c2F)c1
 : 20% | -26%
> CCC(C)(NCc1ccccc1)c1nnnn1-c1ccccc1C (stereo not given)
 : 0% | -11%
> O=C1CC(c2ccccc2)Sc2ccccc2N1Cc1ccc(F)cc1 (stereo not given)
 : 31%[activator] | 1%
> COC(=O)[C@H](C)NC(=O)c1ccc(F)cc1-n1cnnn1
 : -8% | -5%
> O=C(CSc1nc2[nH]ncc2c(=O)n1-c1ccc(F)c(F)c1)N1CCc2ccccc21
 : -8% | -6%
> COc1ccc(Cn2cc(C(=O)c3ccc(OC)cc3)c(=O)c3cc4c(cc32)OCCO4)cc1
 : 24% | -15%
> CC(C)(C(=O)O)N1CCOCC1
 : 23% | 32%[activator]
> CCc1ccc(OCCNC(=S)NC2CC2)cc1
 : -1% | 26%
> Cc1ccc(CN2CCCn3nc(C(=O)NCCc4cccc(C)c4)cc3C2=O)cc1
 : -5% | 20%
> COc1cc(OC)c(NC(=O)NCC(=O)N2CCc3ccccc32)cc1Cl
 : 1% | 6%
> COc1ccc(/C=C(/C#N)C(=O)OCc2c(Cl)cccc2Cl)cc1
 : -1% | -9%
> Cc1nn2c(-c3ccccc3)cc(-c3ccccc3)nc2c1-c1ccc(Cl)cc1
 : -6% | 6%

Some of the entries so far, with bars between the fields:
canonical_smiles | 2A Renilla | 2A firefly
O=C(CSc1nc2[nH]ncc2c(=O)n1-c1ccc(F)c(F)c1)N1CCc2ccccc21 | -8% | -6%
COc1ccc(Cn2cc(C(=O)c3ccc(OC)cc3)c(=O)c3cc4c(cc32)OCCO4)cc1 | 24% | -15%

Additional entries.
Each structure is followed by: 2A Renilla | 2A firefly
> Cc1ccc(C(=O)N2CCN(c3oc(C4CC4)nc3C#N)CC2)cn1
 : 5% | -7%
> COc1ccc2cnn(CC(=O)Nc3ccccc3F)c(=O)c2c1OC
 : -3% | 7%
> Cc1ccc(NCc2cc3cc4c(cc3n(CC(=O)Nc3ccc(F)cc3F)c2=O)OCCO4)cc1
 : -9% | 0%
> Cc1ccc(N/N=C/c2ccc(F)cc2F)cc1Cl
 : 16% | 0%
> Cc1ccc(-c2nc3ncccn3c2Nc2ccc3c(c2)OCCO3)cc1
 : -11% | 43%[activator]
> CC1CCCCC1NC(=O)C1CCC1 (stereo not given)
 : 5% | 5%
> Cc1cccc(N2CCN(C(=O)COCc3cc(-c4ccc5c(c4)OCO5)on3)CC2)c1C
 : -9%&-2% | -5%&-6%
> Cc1cc(C)cc(NS(=O)(=O)c2ccc3c(c2)OCC(C(=O)N2CCCC2)O3)c1 (stereo not given)
 : 151%[activator] | -29%
> COC(=O)c1[nH]c2ccc(Cl)cc2c1NC(=O)C(C)N1CCC2(CC1)OCCO2 (stereo not given)
 : 32% | 14%
> CN1CCN(CCNC(=O)c2cnn(-c3cccc(Cl)c3)c2C2CCN(C(=O)OC(C)(C)C)CC2)CC1
 : -6% | -22%
> Cc1ccc(-n2nnnc2C2(Nc3ccccc3C)CCCCC2)cc1
 : 173%[activator] | 5%
> Cc1cccc(NC(=O)C2CCCN(S(=O)(=O)c3cccc4nonc34)C2)c1C (stereo not given)
 : -4% | -13%
> CCn1c(Cc2ccccc2)nnc1SC(C)c1nc2ccccc2c(=O)[nH]1 (stereo not given)
 : 6% | -3%
> CCOc1ccc(-c2cn3c(n2)sc2cc(C(=O)NC4CCCc5ccccc54)ccc23)cc1 (stereo not given)
 : 10% | 17%
> COC(=O)c1ccc(NC(=O)CC2C(=O)N(c3cccc(OC)c3)C(=O)N2Cc2cccs2)cc1 (stereo not given)
 : 87%[activator] | -8%
> CC(=O)N1CCN(c2ccccc2NC(=O)c2ccc(-c3ccccc3)cc2)CC1
 : 54%[activator] | 83%[activator]
> N#Cc1c(C(F)(F)F)cc(-c2cccs2)nc1SCC(=O)Nc1cccc(Cl)c1
 : -8% | -15%
> CC(=O)c1c(C)n(-c2cccc(Cl)c2)c2ccc(OC(=O)c3ccccc3)cc12
 : -8% | -7%
> COc1ccc(/C=C/c2nc(C#N)c(NCc3ccc(F)cc3)o2)cc1OC
 : 0%&-5% | ?
> CCCCOc1ccccc1C1CC(=O)Nc2cc(OC)c(OC)cc21 (stereo not given)
 : -2% | -16%
> COC(=O)c1ccc(NC(=O)C(=O)NCCc2csc(-c3ccc(F)cc3)n2)cc1
 : -11% | -3%
> CN1C(=O)C2(CC(=O)Nc3c2cnn3Cc2ccc(Cl)cc2)c2c(Cl)cccc21 (stereo not given)
 : 4% | -21%
> CC(=O)N1CCc2cc(Br)cc(S(=O)(=O)N3CCC(C(=O)Nc4cccc(C)c4C)CC3)c21
 : 2% | -15%
> CCC1CCCCN1Cc1c(O)ccc2c(=O)c(Oc3ccccc3Cl)c(C(F)(F)F)oc12 (stereo not given)
 : 2% | -16%
> Cc1ccc(S(=O)(=O)C(CNC(=O)COc2ccc(Cl)cc2)c2ccco2)cc1 (stereo not given)
 : 35%[activator] | -27%
> CC(=O)c1ccc2c(c1)Cc1ccccc1-2
 : 7% | 0%
> CCOc1ccc(CCNC(=O)CS(=O)(=O)Cc2nc(-c3cccc(Cl)c3)oc2C)cc1
 : 2%&13% | 13%&-5%
> CCc1nc2ccc(C(=O)NCC(F)(F)F)cc2nc1CC
 : -1% | 3%
> CCOc1ccccc1CNC(=O)Cc1ccc(NC(=O)N2CCCCc3ccccc32)cc1
 : 33%[activator] | -11%
> c1ccc2oc(CSc3ccc4c(c3)OCCCO4)nc2c1
 : 96%[activator] | 0%

Ordered by molecular weight (low to high): some entries from above.
Each structure is followed by: 2A Renilla | 2A firefly
> Cc1ccc(N/N=C/c2ccc(F)cc2F)cc1Cl
 : 16% | 0%
> COc1ccc2cnn(CC(=O)Nc3ccccc3F)c(=O)c2c1OC
 : -3% | 7%
> COC(=O)c1[nH]c2ccc(Cl)cc2c1NC(=O)C(C)N1CCC2(CC1)OCCO2 (stereo not given)
 : 32% | 14%
> COC(=O)c1ccc(NC(=O)C(=O)NCCc2csc(-c3ccc(F)cc3)n2)cc1
 : -11% | -3%
> N#Cc1c(C(F)(F)F)cc(-c2cccs2)nc1SCC(=O)Nc1cccc(Cl)c1
 : -8% | -15%
> CCOc1ccccc1CNC(=O)Cc1ccc(NC(=O)N2CCCCc3ccccc32)cc1
 : 33%[activator] | -11%
> Cc1ccc(NCc2cc3cc4c(cc3n(CC(=O)Nc3ccc(F)cc3F)c2=O)OCCO4)cc1
 : -9% | 0%

The list goes on.
Each structure is followed by: 2A Renilla | 2A firefly
> N#Cc1ccc(C(=O)N2CC=C(c3c[nH]c4ccccc34)CC2)cc1
 : -2% | 36%
> CCOC(=O)C(NC(=O)C1C2CC3CC(C2)CC1C3)C(=O)OCC (stereo not given)
 : 8% | -13%
> O=c1[nH]c2ccc(-c3csc(NC4CC4)n3)cc2[nH]1
 : -2% | 0%
> CC(C)NC(=O)c1cc(-c2ccco2)nc2ccccc12
 : 3% | 14%
> CCOc1ccccc1Nc1sc(C(=O)c2ccc(Cl)cc2)c(N)c1C#N
 : 10% | -15%
> Cc1ccc(-n2[nH]c(C)c(C3SCc4cc(C)c(C)cc4CS3)c2=O)cc1
 : 6% | 17%
> O=C(NC1CCN(C(=O)c2cc(-c3ccccc3)nc3ccccc23)CC1)c1ccccc1
 : 3% | 40%[activator]
> CCOc1ccc(CN2C(=O)c3ccccc3Sc3ccc(C(=O)NC4CCC(C)CC4)cc32)cc1 (stereo not given)
 : 1% | 13%
> CCCCN(C)CC1CCN(C(=O)Nc2ccc(F)cc2)CC1
 : 7% | 9%
> COc1ccc(-c2nc(CSCC(=O)Nc3cccc(C#N)c3)co2)cc1
 : 0% | 27%
> CC(C)(C)NC(=O)c1cnn2c(C(F)F)cc(-c3ccccc3)nc12
 : -8% | -7%
> O=C(COc1ccccc1Cl)N(Cc1ccco1)Cc1ccco1
 : 31%[activator] | -9%
> O=C1C(Nc2ccc3c(c2)OCCO3)=CC(c2ccccc2)N1c1ccc2c(c1)OCCO2 (stereo not given)
 : 18% | 98%[activator]

The list is partial; count on the stated rates, not on these rows.
